Compound activity: PubChem BioAssay, National Center for Advancing Translational Sciences (NCATS)
Cruzain inh noDet = blocks cruzain activity in detergent-free assay | P25779 | purified cruzain, Z-FR-AMC fluorescence, no detergent | Potency, µM, without a hit: max response, negative = inhibition, actives largely listed as inhibitors | 200,000 tested, 2.3% active | AID 1476;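 also: plate controls were enzyme without inhibitor for no effect and buffer without enzyme for full effect; nearly all actives have a fitted effect of over 40% in size; top concentration of the series not given in the record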
Target sequence (P25779 123-467 limits assumed): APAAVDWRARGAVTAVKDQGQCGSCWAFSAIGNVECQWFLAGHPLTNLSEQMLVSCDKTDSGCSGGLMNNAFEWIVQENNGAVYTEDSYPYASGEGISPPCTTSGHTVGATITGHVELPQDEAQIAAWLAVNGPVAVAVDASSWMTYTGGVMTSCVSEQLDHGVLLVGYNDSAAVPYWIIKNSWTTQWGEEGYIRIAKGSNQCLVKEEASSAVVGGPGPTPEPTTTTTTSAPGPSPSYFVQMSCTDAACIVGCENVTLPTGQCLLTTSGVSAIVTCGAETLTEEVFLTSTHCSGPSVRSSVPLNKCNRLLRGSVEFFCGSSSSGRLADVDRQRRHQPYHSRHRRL
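Detergent-free condition (0.00005% Triton X-100) in acetate buffer pH 5.5 with DTT. 1.5 nM enzyme and compound were pre-mixed 15 min, then 2 uM Z-FR-AMC substrate added; reaction progress from fluorescence change between first and third reads (60 s).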
MARV entry inh = blocks Marburg virus binding to or entry into cells | Marburg virus pseudotyped entry inhibition, cell reporter; control for the full effect not named in the record; about a third of the inactives were read at about 46 µM | Potency, µM (highest dose often 37.8 µM), for inactives: at the top dose activity change, negative = inhibition, most hits filed as inhibitors | 300,000 tested, 1.8% active | AID 540276; active = well fitted inhibition curve with a large enough effect; inconclusive = small, poorly fitted or top-dose-only effect, or effect the other way; inactive = flat fitted curve, though single readings scatter; tested in HEK293 cells; about a fifth of its hits are not listed in these tables; also: % is scaled to controls: 0 for no effect and ±100 for the full control effect; luciferase read-out
LASV entry inh = blocks Lassa virus binding to or entry into cells | Lassa virus pseudotype entry inhibition, cell reporter; control for the full effect not named in the record | Potency, µM (highest dose often 37.9 µM), for the others: top-dose activity change, negative = inhibition, actives largely listed as inhibitors | 300,000 tested, 1.2% active | AID 540256; active means well fitted inhibition curve with a large enough effect; inconclusive means small, poorly fitted or top-dose-only effect, or effect the other way; inactive means flat fitted curve, though single readings scatter; tested in HEK293 cells; also: % is scaled to controls: 0 for no effect and ±100 for the full control effect; nearly all actives have a fitted effect of over 50% in size; luciferase read-out
2A StopGo = FMDV 2A StopGo reporter, luciferase signal; human cells with a luciferase reporter of 2A StopGo recoding; control for the full effect not named in the record; AID 1159524; 410,000 tested, 1.2% active; Potency, µM (titrated, usually from 57.9 µM), inactives show at the highest dose signal change, negative = less light; active = well fitted falling curve with a large enough effect; inconclusive = small, poorly fitted or top-dose-only effect; inactive = no such curve, though single readings can be large or run the other way; tested in HEK293T cells; also: % is scaled to controls: 0 for no effect and ±100 for the full control effect; nearly all actives have a fitted effect of over 45% in size; luciferase light after 4 h
RE007 growth inh = less growth of the S. pombe RE007 Vpr strain; S. pombe RE007 Vpr strain, BacTiter-Glo ATP luminescence, 24 h; control for the full effect not named in the record; 360,000 tested, 0.21% active; Potency, µM (top dose mostly 92.2 µM), for inactives: at the highest dose activity change, negative = less growth; active = well fitted falling curve with a large enough effect; inconclusive = small, poorly fitted or top-dose-only effect; inactive = no such curve, though single readings can be large or run the other way;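 also: % is scaled to controls: 0 for no effect and ±100 for the full control effect; nearly all actives have a fitted effect of over 50% in size; the assay follows cell death caused by Vpr and the record does not say whether a fall means rescue or toxicity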
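Fission yeast RE007 carrying one integrated HIV-1 vpr copy, seeded at OD 0.01 in PMG+AL medium with 23 nL pinned compound. Grown 24 h at 30 degrees; viability read by BacTiter-Glo luminescence after 5 min.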
SARS PLP yeast = blocks SARS-CoV papain-like protease in a yeast assay | AID 485353 | 330,000 tested, 0.19% active | S. cerevisiae expressing SARS-CoV PLpro, growth rescue; control for the full effect not named in the record | Potency, µM (top dose mostly 32.9 µM), inactives show top-dose activity, positive = growth rescue; active means well fitted rising curve with a large enough effect; inconclusive means small, poorly fitted or top-dose-only effect; inactive means no such curve, though single readings can be large or run the other way; also: 0% is about no effect; nearly all actives have a fitted effect of over 55% in size; growth read by luminescence after 48 h
Cruzain inh Det = inhibitors of Trypanosoma cruzi cruzain with detergent. 200,000 tested, 0.43% active. Potency, µM, for the others: max response, negative = inhibition, actives largely listed as inhibitors. AID 1478. purified cruzain, Z-FR-AMC fluorescence, 0.01% Triton;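 also: plate controls were neutral wells for no effect and buffer without enzyme for full effect; nearly all actives have a fitted effect of over 40% in size; top concentration of the series not given in the record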
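Steps: dispense cruzain (1.5 nM final) in acetate buffer pH 5.5 with DTT and 0.01% Triton X-100; pin-transfer compounds; incubate 15 min RT; add Z-FR-AMC (2 uM final); read fluorescence every 30 s, using the 60 s intensity change.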
NS1 inh = inhibitors of influenza NS1 protein function; S. cerevisiae slowed by influenza A NS1, growth recovery by OD600; 270,000 tested, 0.4% active; Potency, µM (doses to about 46.1 µM), without a hit: top-dose activity, positive = more growth; AID 2326; active means well fitted rising curve with a large enough effect; inconclusive means small, poorly fitted or top-dose-only effect; inactive means no such curve, though single readings can be large or run the other way; also: nearly all actives have a fitted effect of over 50% in size
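Compounds were scored for reversing the slow growth caused by influenza A NS1 in S. cerevisiae, measured by optical density at 600 nm. Assay medium contained 2% galactose at pH 6.0; NS1-free yeast of the same strain were the positive control.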
Active calls of the source: *; ? = inconclusive; · = no result given; [ ] = remark or other dose. Unless noted, calls follow the shape of the dose curve; as a rule, active = well fitted curve in the direction sought with a large enough effect; inconclusive = small, poorly fitted or top-dose-only effect, or another doubt; inactive = no such curve, though single readings can be large; an effect the other way counts as inactive or inconclusive. Potency is read from the fitted curve at half-maximal effect. Not a hit list; overall some 4.6% were active at least once.

canonical_smiles	Cruzain inh noDet	LASV entry inh	MARV entry inh	NS1 inh	RE007 growth inh	SARS PLP yeast	2A StopGo	Cruzain inh Det
O=C1c2ccccc2N(Cc2ccc(Cl)cc2)C2=NCCN12	-1.6%	10.3%	-3.7%	-0.9%	10.1%	2.2%	0.0%	-2.5%
Cc1nc(N2CCCC2)c2c(C(=O)Nc3cccc(C)c3C)c(C)oc2n1	-8.1%	17.4%[46.1 µM]	·	·	·	·	-0.4%	-3.6%
CN(C)CCCCOc1ccc(Br)cc1Cl	·	-17.3%	?	2.0%	13.6%	0.7%	1.5%	·
COC(=O)Cn1cnc2c(nnn2-c2ccc(F)cc2)c1=O	·	·	·	-3.5%	13.2%	-2.0%	7.3%	·
Cc1cc(C)nc(N/N=C/c2ccccc2OCc2ccc(Cl)cc2)n1	-3.1%	-0.6%	?	3.0%	-9.3%	-33.8%	-1.9%	-8.4%
Cc1ccc(-c2nc3ccccc3c(=O)n2NC(=O)c2cccs2)cc1	-7.1%	-10.4%	?	8.2%	10.0%	-17.7%	-22.9%	5.2%
Cc1oc(C(C)(C)C)c(CN2CCOCC2)c1C(=O)O	·	3.3%	4.2%[46.1 µM]	2.3%	3.5%	0.1%	-0.9%	·
CSCCC(NC(=O)c1ccc([N+](=O)[O-])cc1Cl)C(=O)OCC(=O)NC(=O)CN1CCCC1=O (stereo not given)	·	16.7%	11.4%	·	-10.3%	9.0%	-9.3%	·
Cc1cccc(Cc2c(C)nc3nc(SCC(=O)NCc4ccc(F)cc4)nn3c2C)c1	4.1%	-13.9%[46.1 µM]	-7.6%[46.1 µM]	·	·	·	-29.1%	-5.9%
CC1CCN(S(=O)(=O)c2ccc(NC(=O)N3c4ccccc4Sc4ccccc43)cc2)CC1	12.6µM*	-29.9%	?	1.9%	-15.4%	3.8%	·	-1.1%
CCc1ccc(C(=O)C(C)OC(=O)Cn2cnc3c2c(=O)n(C)c(=O)n3C)cc1 (stereo not given)	·	18.1%	8.9%	·	2.9%	10.8%	-22.8%	·
CCOC1=C/C(=C/c2c(N)n3nc(S(=O)(=O)CC)sc3nc2=O)C=CC1=O	·	7.9%	6.1%	·	-6.6%	0.5%	-8.7%	·
O=C(CCS(=O)(=O)c1ccc2c(c1)NC(=O)CO2)NCCc1ccc(Cl)cc1	·	·	·	6.0%	-16.5%	-2.7%	-4.5%	·
Cc1nnc(SCc2cnc(-c3ccccc3)o2)[nH]c1=O	-3.1%	-0.2%	?	-8.0%	32.4%	2.9%	9.0%	-0.8%
C=CCNC(=O)c1ccncc1	8.6%	4.4%	11.2%	-0.7%	7.8%	1.0%	5.3%	1.7%
CCCCNC(=O)c1ccc(N2CCOCC2)c(NS(=O)(=O)c2ccc(OC)cc2)c1	?	-12.8%	-15.4%	-28.1%	3.6%	7.0%	12.6%	-2.3%
O=C(CCSCc1ccccc1F)NCc1cccnc1	·	11.5%	25.8%	·	-11.4%	-0.6%	-18.3%	·
O=C(CCC(=O)n1ncc2ccccc21)NCc1ccc(F)cc1	·	·	·	-0.7%	6.3%	6.2%	-12.1%	·
COc1ccccc1N1C(=O)CC1(C#N)c1ccc(OCc2ccccc2)cc1 (stereo not given)	1.0%	?	?	8.6%	-7.6%	-14.1%	-26.1%	-5.1%
COc1ccc(N(CC(=O)N2CCN(c3cccc(C)c3)C(C)C2)S(=O)(=O)c2c(C)n[nH]c2C)cc1 (stereo not given)	·	?	?	·	12.8%	0.7%	-24.7%	·
CCc1cccc(NC(=O)c2cnc(N3CCOCC3)c3ccccc23)c1	?	?	·	·	·	·	?	-8.9%
CCCCN1C2CCCC1CC(NC(=O)c1ccccc1Cl)C2 (stereo not given)	·	·	·	-16.0%	-1.7%	-3.0%	1.5%	·
C[C@H](NC(=O)c1nc[nH]c1C(=O)NC(c1ccccc1)c1ccccc1)C(=O)OCc1ccccc1	·	·	·	3.6%	10.7%	-0.5%	-20.7%	·
CCCOc1ccc(CCC(=O)N/N=C/c2ccco2)cc1	·	?	4.3%[46.1 µM]	-3.9%	31.5%	-1.8%	14.2%	·
S=C1CCC(c2ccc(Cl)cc2)=NN1c1ccccc1	·	?	-24.0%[46.1 µM]	-3.9%	-24.0%	4.6%	-14.2%	·

canonical_smiles	Cruzain inh noDet	LASV entry inh	MARV entry inh	NS1 inh	RE007 growth inh	SARS PLP yeast	2A StopGo	Cruzain inh Det
COc1ccccc1-n1c(SCC(=O)Nc2ccc(F)cc2)nc2c(c1=O)SCC2	-18.2%	4.1%	-6.7%	-4.0%	0.9%	16.8%	-7.4%	-28.5%
CC(=O)Nc1ccc(Nc2nc3ccccc3nc2NS(=O)(=O)c2ccccc2)cc1	·	·	·	5.9%	9.8%	-5.6%	-3.5%	·
CC1CC(C)CN(C(=O)CN(C)S(=O)(=O)c2ccc3c(c2)c(=O)n(C)c(=O)n3C)C1 (stereo not given)	·	21.2%[46.1 µM]	-21.7%[46.1 µM]	-5.5%	-1.5%	4.9%	-9.7%	·
CCCNC(=O)N1C2CCC1CC(O)(c1cccnc1)C2 (stereo not given)	-7.1%	0.6%	-7.4%	-3.0%	22.0%	5.2%	13.7%	2.9%
COC(=O)Nc1ccc(S(=O)(=O)NCc2ccccn2)cc1	·	-2.7%	-11.4%[46.1 µM]	·	-10.7%	-3.1%	5.1%	·
CCOC(=O)C1(CC2CCCCO2)CCN(Cc2nc3ccccc3nc2C)CC1 (stereo not given)	·	-17.2%[46.1 µM]	?	3.9%	-11.9%	-0.1%	-23.3%	·
O=c1cc(O)nc(SCc2ccccc2Cl)[nH]1	?	-2.3%	0.0%	5.01µM*	4.0%	5.8%	-10.1%	-4.5%
Cc1cc(Br)ccc1N1C(=O)CC(=O)NC1=O	12.3%	7.0%	5.7%	?	3.2%	10.3%	9.6%	3.3%
COc1ccc(-c2n(-c3ccccn3)c3ccccc3[n+]2-c2ccccn2)cc1	·	·	·	6.2%	5.6%	-1.0%	-15.0%	·
CCCCCCCCSc1nnc(/N=C/N(C)C)s1	·	-5.5%	-11.9%[46.1 µM]	-2.9%	14.3%	0.9%	-8.3%	·
COC(=O)CSCc1nc(-c2ccc(C(=O)OC)cc2)oc1C	-1.1%	7.08µM*	·	·	·	·	-4.2%	-2.5%
Cc1cc(NC(=O)Cn2cnc3sccc3c2=O)no1	·	19.9%	5.0%	·	12.4%	2.2%	-4.7%	·
CCn1c(SCC(=O)N2CCN(c3cccc(Cl)c3)CC2)nc2ccccc2c1=O	?	-5.7%	?	16.7%	38.3%	-30.0%	?	-8.2%
CSc1c2c(nc3ncnn13)CCC2	7.3%	17.0%	7.9%	14.4%	-10.4%	-17.6%	-11.6%	-0.5%
Cc1cc(C(=O)Nc2ccc(C)c(S(=O)(=O)N3CCOCC3)c2)c(C)o1	·	10.0%	10.0%[46.1 µM]	·	-18.9%	0.2%	-21.3%	·
O=C(NCCc1csc(-c2ccc(C(F)(F)F)cc2)n1)c1ccc(F)c(F)c1	26.8%	-26.2%[46.1 µM]	·	·	·	·	20µM*	-13.2%
COc1ccc(NC(=O)c2cccc3c(Br)cccc23)cc1	·	·	·	0.8%	-11.5%	-6.4%	27.8%	·
COC(=O)C1=C(C)N(C)C(C)=C(C(=O)OC)C1c1ccncc1	-3.6%	?	5.0%	-27.3%	-1.1%	2.8%	0.0%	2.2%
O=S(=O)(NCCc1ccccc1)c1ccc(N2CCCCS2(=O)=O)cc1	-6.6%	?	·	·	·	·	14.2%	-2.5%
N/C(CCS(=O)(=O)c1ccc(Cl)cc1)=N\OC(=O)c1ccc(Cl)cc1	·	·	·	10.1%	-13.4%	0.3%	-29.5%	·
CCCCN1C(=O)c2[nH]nc(-c3ccccc3O)c2C1c1cccc(OCc2ccccc2)c1 (stereo not given)	-70.8%	1.58µM*	?	·	·	·	-29.0%	-5.3%
CCOc1ccccc1NC(=S)N(CCN(C)C)C(C)c1ccncc1 (stereo not given)	·	-1.4%[46.1 µM]	-23.2%[46.1 µM]	·	2.1%	2.8%	7.0%	·
O=[N+]([O-])c1ccc2nc(C3CCCCC3)[nH]c2c1	·	1.4%	?	-38.2%	-0.3%	1.3%	25.3%	·
CC(=O)N1CCOc2ccc(S(=O)(=O)NCCc3ccc(C)cc3)cc21	·	·	·	2.1%	15.4%	-3.8%	30.9%[activator]	·
CCN(CC)CCNC(=O)Cn1nc(C)c2c(C)n(-c3ccccc3)nc2c1=O	-5.7%	0.5%[46.1 µM]	·	·	·	·	7.0%	-3.2%
Cc1ccc2nc(-c3cccc(S(=O)(=O)N(C)C)c3)cn2c1	5.2%	-26.2%	?	-6.0%	-12.1%	2.0%	15.9%	-0.6%

Single records, from the list above. Values in the order: Cruzain inh noDet | LASV entry inh | MARV entry inh | NS1 inh | RE007 growth inh | SARS PLP yeast | 2A StopGo | Cruzain inh Det
O=C(CCSCc1ccccc1F)NCc1cccnc1 reads · | 11.5% | 25.8% | · | -11.4% | -0.6% | -18.3% | ·
N/C(CCS(=O)(=O)c1ccc(Cl)cc1)=N\OC(=O)c1ccc(Cl)cc1 reads · | · | · | 10.1% | -13.4% | 0.3% | -29.5% | ·
